Rango dissoc inh: inhibition of RanGTP-driven Rango-importin beta dissociation. O95149+P62826. Biochemical FRET Rango-importin beta, RanGTP-induced dissociation. Potency, µM (highest dose often 46.1 µM), for inactives: at the top dose activity change, negative = inhibition. AID 540253. hit rate 0.071% among 340,000; active means falling FRET ratio curve, often poorly fitted, with flat reads before Ran was added; inconclusive means other falling curves, or compound fluorescence or quenching; inactive means flat or rising ratio curve;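 note: potency is the fitted concentration of half-maximal effect; % of control where 0% means no effect; nearly all actives have a fitted effect of over 45% in size; -100% = wells without RanGTP and RCC1; the record marks most hits as doubtful in a second field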
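Rango (0.1 uM)–importin beta (0.25 uM) complex; RanGTP-RCC1 trigger; 45 min RT; CFP/YFP FRET read.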
Rango complex inh: prevents formation of the Rango-importin beta complex. Q14974. Potency, µM (doses to about 92.2 µM), inactives show at the top dose inhibition of complex formation. AID 540263. hit rate 0.031% among 340,000. Rango CFP/YFP FRET sensor + importin beta, 45 min; active = rising FRET ratio curve, often small or poorly fitted; inconclusive = mostly compound fluorescence or quenching in the first reads; inactive = flat curves in all reads;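 note: potency is the fitted concentration of half-maximal effect; 0% = DMSO wells and 100% = buffer wells lacking importin beta; nearly all actives have a fitted effect of over 15% in size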
Target sequence (Q14974 whole entry, looked up): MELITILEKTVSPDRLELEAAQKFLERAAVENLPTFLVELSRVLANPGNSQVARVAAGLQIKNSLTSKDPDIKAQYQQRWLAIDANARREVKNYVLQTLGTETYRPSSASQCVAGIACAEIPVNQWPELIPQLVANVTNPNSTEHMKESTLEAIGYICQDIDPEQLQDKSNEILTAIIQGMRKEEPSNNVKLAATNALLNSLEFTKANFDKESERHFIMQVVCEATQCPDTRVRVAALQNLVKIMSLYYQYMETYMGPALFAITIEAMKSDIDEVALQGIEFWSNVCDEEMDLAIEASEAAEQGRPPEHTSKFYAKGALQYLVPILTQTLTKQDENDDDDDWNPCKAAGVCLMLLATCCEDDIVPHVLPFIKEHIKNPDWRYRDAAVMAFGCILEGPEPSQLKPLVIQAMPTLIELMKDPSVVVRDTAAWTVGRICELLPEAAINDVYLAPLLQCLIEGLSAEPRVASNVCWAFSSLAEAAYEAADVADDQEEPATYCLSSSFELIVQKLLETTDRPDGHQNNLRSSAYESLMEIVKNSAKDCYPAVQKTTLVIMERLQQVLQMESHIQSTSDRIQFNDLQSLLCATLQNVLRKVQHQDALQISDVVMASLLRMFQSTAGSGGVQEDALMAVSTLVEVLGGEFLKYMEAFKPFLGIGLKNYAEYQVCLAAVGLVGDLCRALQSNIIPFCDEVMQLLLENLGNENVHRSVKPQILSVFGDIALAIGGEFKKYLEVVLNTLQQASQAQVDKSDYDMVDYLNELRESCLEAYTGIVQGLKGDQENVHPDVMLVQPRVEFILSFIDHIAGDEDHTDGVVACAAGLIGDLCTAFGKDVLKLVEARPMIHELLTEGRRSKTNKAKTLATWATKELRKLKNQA
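FRET biosensor (snurportin 1 IBB flanked by EYFP and cerulean), 50 nM, with compound 5 min, then 0.125 microM importin beta in PBS, 1 mM DTT, 0.02% Tween-20, 0.1% BSA. CFP/YFP ratio read after 45 min at room temperature; pre-read flags interference.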
GLA inh pH 4.5: alpha-galactosidase A (human) inhibition, pH 4.5; purified enzyme, 4-MU-alpha-Gal fluorescence, pH 4.5; activity change, negative = inhibition, % at 105 µM; P06280; 230,000 tested, under 10 active; AID 1467; inconclusive = small, poorly fitted or top-dose-only inhibition, or a rising curve; inactive = flat fitted curve, though single readings scatter; no compound was filed as active;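 note: 0% = full activity with enzyme and -100% = basal without enzyme; dose as in the result columns while the protocol names 77 µM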
miR-21 reporter: raises the signal of a miR-21 reporter; HeLa miR-21 FLuc reporter, luciferase, 48 h; Potency, µM (top dose mostly 38.3 µM), for inactives: at the highest dose reporter change, positive = more light; AID 2288; 340,000 tested, under 10 active; active = well fitted rising curve with a large enough effect; inconclusive = small, poorly fitted or top-dose-only effect; inactive = no such curve, though single readings can be large or run the other way;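 note: % of control where 0% means no effect; miR-21 action dims this reporter so a rising signal means less miR-21 action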
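HeLa cells endogenously expressing miR-21, stably carrying CMV-driven firefly luciferase with a downstream miR-21 binding site, 2000 cells/well. Titrations up to approximately 40 uM, 48 hours; luciferase luminescence read.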
An asterisk follows results filed as active; u = inconclusive; x = no result given. Some of the compounds tested; count on the stated rates, not on these rows.

Results follow in this order: Rango dissoc inh | Rango complex inh | GLA inh pH 4.5 | miR-21 reporter
> CCOC(=O)c1ccc(NC(=O)CSc2nc3c(c(=O)n2CC)SC(C)C3)cc1 (centres undefined)
 : 1% | 2.0% | -13 | 15%
> COc1ccc(N(CC(=O)N/N=C/c2ccc(OC3CSC3)cc2)S(=O)(=O)c2ccccc2)cc1
 : 17% | 1.5% | -12 | -12%
> CCOc1cc(CN2CCOCC2)cc(C(C)=O)c1
 : 1% | -1.8% | 8 | -2%
> CC(C)NC(=O)c1ccccc1NC(=O)CCS(=O)(=O)Cc1ccccc1
 : -9% | 1.5% | -2 | -9%
> Cc1ccc(C2CC(=O)NC(SCC(N)=O)=C2C#N)s1 (centres undefined)
 : 9% | 0.2% | -12 | 1%
> Nc1nc(NC(=O)c2cccnc2)nn1-c1ccccc1
 : -1% | -0.4% | 3 | -14%
> O=C(NCC(=O)N1CCN(S(=O)(=O)c2ccc3c(c2)OCCO3)CC1)c1ccccc1F
 : -13% | -1.6% | x | x
> Cc1c(C(=O)OCC(=O)Nc2ccc(C(N)=O)cc2)cccc1[N+](=O)[O-]
 : -5% | -3.5% | 6 | 1%
> O=C(Nc1ncc(Cc2ccc(SC(F)F)cc2)s1)c1ccc(OC(F)F)cc1
 : 14% | -0.1% | 3 | 21%
> O=S(=O)(Nc1nnc(C2CC2)s1)c1ccccc1
 : 11% | -1.3% | x | 0%
> Cc1c(-c2cccc(Cl)c2)nc2ccccc2c1C(=O)OC/C(O)=C(\C#N)c1nc2ccccc2[nH]1
 : u | u | -2 | -4%
> COc1ccc2[nH]c(=O)c(COC(=O)c3ccco3)cc2c1
 : -8% | u | -11 | -7%
> Cc1cc(-c2nnc(SCC(=O)Nc3c(C)cccc3C)n2N)n[nH]1
 : 11% | 5.5% | x | -3%
> CC(C)(C)n1nc2c(c1NC(=O)c1ccc(Br)o1)CS(=O)C2 (centres undefined)
 : 9% | 7.1% | 0 | -3%
> Cc1ccc(-c2cc(N)n[nH]2)cc1
 : 20% | 4.0% | -24 | 1%
> CN(CCO)S(=O)(=O)c1ccc2c(c1)C(=NO)c1cc(S(=O)(=O)N(C)CCO)ccc1-2
 : -11% | 0.3% | -5 | 3%
> CC1(C)CC(=O)c2cc(OCC(=O)NCCCN3CCN(c4ccccc4F)CC3)ccc2O1
 : -3% | 0.2% | 7 | 9%
> Cc1cc(OCCSc2nnc(-c3cccs3)n2C)ccc1Cl
 : -6% | 0.5% | -4 | -3%
> Cc1[nH]nc(-c2ccc(O)c(C)c2O)c1Oc1ccccc1
 : -16% | 1.1% | -6 | 5%
> COc1ccccc1OCCNC(=O)CCS(=O)(=O)c1ccccc1
 : -5% | 1.4% | x | x
> C=CCOC(=O)Nc1c(C(=O)OC)[nH]c2ccc(Cl)cc12
 : 35% | 2.4% | 0 | -1%
> C[n+]1cccc(/C=N/NC(=O)CC23CC4CC(CC(C4)C2)C3)c1
 : 19% | -1.4% | 0 | 1%
> CCN1C(=O)/C(=C\N(C)C)NC1=S
 : -1% | -5.2% | 5 | -4%
> COc1ccc(OC)c(N2C(=O)CC(Cc3ccc(C)cc3)C2=O)c1 (centres undefined)
 : 17% | 0.3% | 3 | -9%
> c1coc(CNc2ncnc3[nH]ncc23)c1
 : -4% | 4.2% | -7 | 1%
> COc1ccccc1NC(=O)CSc1nnc(NC(=O)C2CC2)s1
 : 3% | -0.5% | x | 7%
> COCCc1nc2ccc(C(=O)N(C)Cc3cccc(-n4nc(C)cc4C)c3)cc2o1
 : 0% | 0.6% | x | 0%
> O=C1[C@@H](Oc2ccccc2)[C@@H](c2cnc3ccccc3c2)N1c1ccccc1
 : 0% | -2.0% | x | x
> CCOC(=O)C(C)Sc1nc2c(cnn2-c2ccc(F)cc2)c(=O)[nH]1 (centres undefined)
 : 8% | 0.8% | x | -1%
> COc1ccc(C)cc1NC(=O)CCN1CCN(c2ccccc2F)CC1
 : 11% | 0.3% | x | 2%

6 entries already listed, sorted by count of non-hydrogen atoms, descending:
Results follow in this order: Rango dissoc inh | Rango complex inh | GLA inh pH 4.5 | miR-21 reporter
> CC1(C)CC(=O)c2cc(OCC(=O)NCCCN3CCN(c4ccccc4F)CC3)ccc2O1
 : -3% | 0.2% | 7 | 9%
> O=C(Nc1ncc(Cc2ccc(SC(F)F)cc2)s1)c1ccc(OC(F)F)cc1
 : 14% | -0.1% | 3 | 21%
> O=C1[C@@H](Oc2ccccc2)[C@@H](c2cnc3ccccc3c2)N1c1ccccc1
 : 0% | -2.0% | x | x
> CCOC(=O)C(C)Sc1nc2c(cnn2-c2ccc(F)cc2)c(=O)[nH]1 (centres undefined)
 : 8% | 0.8% | x | -1%
> Cc1[nH]nc(-c2ccc(O)c(C)c2O)c1Oc1ccccc1
 : -16% | 1.1% | -6 | 5%
> Cc1ccc(C2CC(=O)NC(SCC(N)=O)=C2C#N)s1 (centres undefined)
 : 9% | 0.2% | -12 | 1%

More results:
Results follow in this order: Rango dissoc inh | Rango complex inh | GLA inh pH 4.5 | miR-21 reporter
> CN1OC(COC(=O)c2ccc(Cl)cc2Cl)CC1c1ccccc1 (centres undefined)
 : 4% | 7.0% | 2 | -7%
> N#C/C(=C\c1c(Oc2ccccc2Cl)nc2ccccn2c1=O)C(=O)NC1CCS(=O)(=O)C1 (centres undefined)
 : u | u | x | 4%
> O=C(/C=C/c1ccccc1[N+](=O)[O-])NCc1cccnc1
 : 20% | -1.3% | 1 | -5%
> CCOc1ccc2c(O)csc2c1
 : -15% | -2.3% | 7 | -11%
> COC(=O)CNC(=O)CCCCC(=O)NCC(=O)OC
 : 3% | 1.4% | 2 | -3%
> O=C(CSc1nnc(-c2ccc(C(F)(F)F)cn2)s1)c1ccc(Cl)cc1
 : 9% | 0.5% | -1 | -3%
> Cc1cc2c(cc1C)-c1nnnn1C(C)(C)C2
 : 15% | -1.0% | 5 | -17%
> Cc1c(CC(=O)NCCC(=O)O)c(=O)oc2cc3occ(-c4ccccc4)c3cc12
 : 0% | -0.5% | x | -10%
> CN(Cc1ccccc1)c1nc2c(c(=O)[nH]c(=O)n2C)n1Cc1ccccc1
 : -11% | -5.4% | 1 | -4%
> CCCn1c(-c2ccc[nH]c2=O)nc2cc(C)c(C)cc21
 : 12% | -1.7% | 17 | -52%
> CN(Cc1ccccc1)C(=O)c1ccc(COc2ccccc2)cc1
 : 17% | -0.4% | x | -7%
> CCOc1cc(N2CCOCC2)c(OCC)cc1NC(=O)[C@H](C)NC(=O)c1ccco1
 : -3% | 1.6% | x | 6%
> CCC(C)(C)NC(=O)C(c1ccc(C)o1)N(Cc1ccc2c(c1)OCO2)C(=O)c1snc(C(N)=O)c1N (centres undefined)
 : 25% | 0.0% | x | -3%
> Nc1ncnc2c1C(c1ccccc1)c1c(ccc3ccccc13)O2 (centres undefined)
 : -5% | 0.7% | x | x
> CCN(CC(=O)Nc1ccc(OC)cc1)C(=O)c1cc2c(s1)CCCCC2
 : 6% | 1.1% | x | x
> CSc1ncccc1C(=O)OCC(=O)N(C)C1CCS(=O)(=O)C1 (centres undefined)
 : -21% | -2.0% | 1 | -1%
> COc1ccc(N2CCN(C(=O)C3CCN(S(=O)(=O)c4ccc(C)cc4)CC3)CC2)cc1
 : 1% | 0.2% | 2 | -2%
> CCCCCC(=O)Nc1ccc(Cc2ccncc2)cc1
 : 18% | -2.8% | 0 | -14%
> COC(=O)c1ccc(CSc2n[nH]c(=S)s2)o1
 : u | -2.4% | -5 | -10%
> CCNS(=O)(=O)c1ccc(CCC(=O)NCCc2ccc(OC)cc2)cc1
 : 20% | 0.7% | -3 | -1%
> COc1cc(NC(=O)CCN2CC(C)OC(C)C2)cc(OC)c1 (centres undefined)
 : 0% | 0.0% | x | 0%
> Oc1ccc(/C=N/n2cnn(Cc3ccccc3Cl)c2=S)c(O)c1
 : 2% | -0.5% | 0 | -16%
> Cc1ccc(OCc2ccc(C(=O)N3CCOCC3)cc2)cc1C
 : 16% | 3.5% | -3 | -18%
> CCc1nc(SCC(=O)Nc2ccccc2)c2c(=O)n(C)c(=O)n(C)c2n1
 : 2% | 0.3% | x | -1%
> COc1ccc(/C=C/C(=O)NC(=S)NNC(=O)c2cccnc2)cc1OC
 : -8% | -0.6% | 3 | -1%
> COc1cccc(-c2cc(C(=O)N3CCN(Cc4ccccc4)CC3)no2)c1
 : u | 7.1% | -5 | -17%
> CC1(C(=O)NCc2cccnc2)CCC(=O)N1CCc1ccccc1 (centres undefined)
 : -3% | -2.7% | -1 | -1%
> Cc1c(-c2ccc(Cl)cc2)[n+](=O)c(-c2ccccc2)cn1[O-]
 : -10% | -0.3% | 0 | -2%
> C=CCSc1nc2ccccc2n2cnnc12
 : 4% | 2.5% | x | -18%
> COc1ccc(C(=O)C2CCN(S(=O)(=O)c3ccc4c(c3)OCCO4)CC2)cc1
 : 4% | 0.1% | -5 | 0%

Next part, starting with the last six of the part before.
Results follow in this order: Rango dissoc inh | Rango complex inh | GLA inh pH 4.5 | miR-21 reporter
> COc1ccc(/C=C/C(=O)NC(=S)NNC(=O)c2cccnc2)cc1OC
 : -8% | -0.6% | 3 | -1%
> COc1cccc(-c2cc(C(=O)N3CCN(Cc4ccccc4)CC3)no2)c1
 : u | 7.1% | -5 | -17%
> CC1(C(=O)NCc2cccnc2)CCC(=O)N1CCc1ccccc1 (centres undefined)
 : -3% | -2.7% | -1 | -1%
> Cc1c(-c2ccc(Cl)cc2)[n+](=O)c(-c2ccccc2)cn1[O-]
 : -10% | -0.3% | 0 | -2%
> C=CCSc1nc2ccccc2n2cnnc12
 : 4% | 2.5% | x | -18%
> COc1ccc(C(=O)C2CCN(S(=O)(=O)c3ccc4c(c3)OCCO4)CC2)cc1
 : 4% | 0.1% | -5 | 0%
> Nc1ccn(-c2ccccc2)c(=O)c1
 : 0% | 1.1% | -3 | -3%
> CN(C(=O)c1ccc(C#N)cc1)c1nnc(-c2ccccn2)s1
 : -3% | -0.2% | 7 | -16%
> O=C(CNc1ccc(Cl)cc1)c1ccc(Br)cc1
 : 25% | 0.7% | 2 | 5%
> CN(C)c1nc(N)nc(CSc2nnnn2-c2ccccc2)n1
 : -7% | 4.0% | 12 | -4%
> CCn1c(-c2csc(C(C)C)c2)n[nH]c1=S
 : 0% | -0.1% | -3 | -26%
> Cc1cc(C)n(-c2ccc3nncn3n2)n1
 : 34% | 0.1% | -6 | 2%
> CC1CCN(Cc2ccc(NC(=O)CC3Oc4ccccc4NC3=O)cc2)CC1 (centres undefined)
 : -2% | -0.1% | -28 | -10%
> CCCCC(CC)CNC(=O)CCS(=O)(=O)c1cccc2nsnc12 (centres undefined)
 : -1% | 4.2% | 0 | 1%
> CC1=NNC(=O)c2ccccc2O1
 : 7% | -0.2% | 14 | -1%
> COc1cc(-c2csc(NC3CCCCC3)n2)cc(OC)c1OC
 : 14% | 1.7% | x | 18%
> CCN1C(=O)CC2CCCC1C2 (centres undefined)
 : 2% | -1.0% | x | x
> Cc1ccc(C2CC2c2n[nH]c(=S)n2-c2cccc(C)c2)cc1 (centres undefined)
 : -9% | 1.0% | 3 | 4%
> CCOC(=O)C1CCCN(C2CCN(Cc3nc(Cc4ccccc4)no3)CC2)C1 (centres undefined)
 : 19% | 0.4% | -3 | 0%
> CCCCCC/C(=N/O)c1ccccn1
 : 3% | -0.9% | -1 | -2%
> COCCCn1c(SCC(=O)NC2CCCCC2)nc2ccccc2c1=O
 : 0% | -4.4% | x | -3%
> O=C(CCS(=O)(=O)Cc1ccccc1)Nc1nnc(C(F)(F)F)s1
 : 4% | -1.4% | x | 20%
